Screening data from PubChem.
TRPML1 ag: agonists of human TRPML1 channel; Q9GZU1; TRPML1-expressing cells, Ca2+ dye fluorescence, FDSS; host cell line not named in the record; reference of the full effect not given here; activation, % (concentration not given with the values); 410,000 compounds, 0.12% hits; AID 624414; in the data active = activation above about 50%; inconclusive = about 30% to 50%; inactive = below about 30%; note: 0% is about no effect; the text of the record puts the active cut at 80%
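Tetracycline-induced TRPML1-DL cells are seeded and incubated overnight before loading with a no-wash Ca2+ dye and quencher. Agonist activity is taken from the 110 s fluorescence read following compound pin-transfer on an FDSS, before EC80 54-4 challenge.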
D2 PAM: positive allosteric modulators of human D2 dopamine receptor. AID 624464. 360,000 compounds, 0.23% hits. potentiation, % (test concentration not listed). DiscoveRx D2 beta-arrestin cells, luminescence, 90 min; 100% = 57 uM dopamine signal; active = potentiation of 50% or more; inconclusive = 30% to 50%; inactive = 30% or less;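 note: compound concentration not given in the record; tested on top of an EC20 dose of dopamine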
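PathHunter beta-arrestin assay in DiscoveRx D2 cells. Compounds were added with an EC20 of dopamine (50 nM final) for 90 min at 37 deg C. Luminescence was read 1 h after detection reagent, with 57 uM dopamine as the EC100 control.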
CtBP-E1A blk: inhibitors of CtBP/E1A interaction; AID 651724; activity change, % (no concentration beside the values); AlphaScreen GST-E1A/His-CtBP binding, 1536-well; stronger effect = lower value; control for the full effect not named in the record; 340,000 compounds, 0.49% hits; in the data active means activity change below about -65%; inconclusive means about -30% to -65%; inactive means above about -30%; note: % is set by controls: 0 for no effect and ±100 for the full control effect
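Homogeneous bead-based format: GST-tagged E1A captured on glutathione donor beads, His-tagged CtBP on nickel acceptor beads; compounds precede bead addition by 2 h at 37 °C.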
TRPML1 inh: blocks the human TRPML1 channel | Q9GZU1 | TRPML1-inducible cells, Ca2+ dye fluorescence, FDSS; stronger effect = lower value; inhibition of EC80 agonist-evoked calcium signal | activity change, negative = inhibition, % (test concentration not listed) | 390,000 compounds, 0.02% hits; in the data active means activity change below about -50%; inconclusive means about -30% to -50%; inactive means above about -30%;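 note: stimulus is agonist 54-4 at its EC80 concentration; % is set by controls: 0 for no effect and ±100 for the full control effect; compound concentration not given in the record; the text of the record puts the active cut at -80%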
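Tet-induced TRPML1-DL cells loaded with Ca8 no-wash calcium dye were read kinetically on FDSS. Compound addition was followed by EC80 agonist 54-4 (4 uM final); inhibition was read over 110 s.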
TRPV1 PAM: potentiators of human vanilloid receptor 1 (TRPV1). 320,000 compounds, 0.02% hits. Q8NER1. potentiation, % at 8.33 µM. TRPV1-expressing cells, Fluo-8 calcium influx, capsaicin EC20 potentiation; host cell line not named in the record; control for the full effect not named in the record. AID 540277; active means potentiation above 80%; inconclusive means 30% to 80%; inactive means below 30%; note: 0% is about no effect
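Cells expressing TRPV1 were dye-loaded with Fluo-8 and read kinetically: 10 s baseline, 3 min after compound (agonist portion), then 2 min after EC20 capsaicin (allosteric enhancer portion). Calcium-bound dye fluorescence at 480/520 nm.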
Six1-Eya2 inh: inhibitors of human Six1/Eya2 interaction. Q15475+O00167. AlphaScreen GST-Six1/His-Eya2 binding, biochemical; stronger effect = lower value; control for the full effect not named in the record. activity change, % (test concentration not listed). 360,000 compounds, 0.56% hits; in the data active = activity change below about -65%; inconclusive = about -30% to -65%; inactive = above about -30%; note: % is set by controls: 0 for no effect and ±100 for the full control effect
Target sequence (O00167 whole entry, looked up): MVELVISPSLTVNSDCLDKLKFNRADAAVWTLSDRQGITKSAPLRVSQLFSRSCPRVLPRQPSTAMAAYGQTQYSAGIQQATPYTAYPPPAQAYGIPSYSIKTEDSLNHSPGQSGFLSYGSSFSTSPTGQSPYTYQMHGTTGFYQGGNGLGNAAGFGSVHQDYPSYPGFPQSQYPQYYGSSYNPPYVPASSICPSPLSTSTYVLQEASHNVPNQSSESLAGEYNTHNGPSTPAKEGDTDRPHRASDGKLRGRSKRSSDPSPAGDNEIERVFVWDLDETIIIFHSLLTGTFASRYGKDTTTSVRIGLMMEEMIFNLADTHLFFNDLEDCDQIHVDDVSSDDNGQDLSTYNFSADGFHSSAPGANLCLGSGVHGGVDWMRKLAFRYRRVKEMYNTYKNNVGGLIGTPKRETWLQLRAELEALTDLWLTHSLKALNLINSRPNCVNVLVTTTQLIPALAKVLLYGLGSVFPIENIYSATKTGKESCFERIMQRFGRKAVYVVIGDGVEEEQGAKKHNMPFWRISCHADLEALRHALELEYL
Target sequence (Q15475 whole entry, looked up): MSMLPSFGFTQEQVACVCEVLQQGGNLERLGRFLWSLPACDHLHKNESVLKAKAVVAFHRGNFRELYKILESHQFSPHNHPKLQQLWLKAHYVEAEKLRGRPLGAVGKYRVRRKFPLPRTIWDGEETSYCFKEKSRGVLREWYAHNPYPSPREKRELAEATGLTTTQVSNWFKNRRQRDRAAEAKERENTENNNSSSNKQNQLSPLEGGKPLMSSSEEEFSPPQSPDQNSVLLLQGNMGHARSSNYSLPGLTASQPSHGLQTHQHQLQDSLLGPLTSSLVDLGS
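AlphaScreen luminescence read after one hour at 37 °C in darkness. Pin-transferred compounds met GST-Six1 and His-Eya2 protein (5X stock 250 nM/500 nM) plus glutathione donor and Ni-chelate acceptor beads (5X, 50 ug/mL).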
The depositor's hits bear a star; ? = inconclusive; . = no result given. Not a hit list. Share with any hit: about 0.95%.

SMILES	TRPML1 ag	D2 PAM	CtBP-E1A blk	TRPML1 inh	TRPV1 PAM	Six1-Eya2 inh
COc1ccc(CCNC(=O)c2cccc3ccccc23)cc1OC	0.6	-0.5	2.6	15.0	14.2	2.1
CCCc1ccc(C(O)c2ncc(-c3ccc(C)cc3)[nH]2)cc1 (configuration not stated)	-0.4	-17.5	-2.4	.	.	-9.1
CCN(CC)C(=O)C1=C(C)N(CCCN2CCCC2=O)C(=O)C(CC(=O)NCc2ccco2)C1 (configuration not stated)	-0.4	-0.5	0.6	32.8	.	-5.5
COc1ccc(Cl)cc1NC(=O)CN(C)C(C)C(=O)NCC1CCCCC1 (configuration not stated)	0.2	-26.5	4.3	6.5	-7.0	5.7
Cc1ccc(C(=O)C(OC(=O)CNC(=O)c2ccc(Cl)cc2)c2ccccc2)cc1 (configuration not stated)	0.0	-1.6	2.1	18.4	-16.1	0.5
CN(CCO)C1=NS(=O)(=O)c2cc([N+](=O)[O-])ccc21	1.3	11.7	-1.1	-5.8	-8.8	6.9
COc1ccc(NC(=O)c2cc3cc(OC)ccc3oc2=O)cc1	0.5	-6.4	3.4	-10.1	.	12.3
Cc1cc(NC(=O)COC(=O)c2ccccc2S(=O)(=O)N(C)c2ccccc2)no1	3.9	10.5	2.2	-15.6	2.3	-0.5
Cc1nc2nc3c(cn2n1)C(=O)CCC3	-0.5	12.3	-9.8	-13.4	1.5	-0.6
C=CCn1c(-c2cccs2)nc2nc3ccccc3nc21	0.3	-22.7	6.5	-3.4	6.5	7.2
CCn1c2ccc(C)cc2c2nnc(SCCN3CCOCC3)nc21	0.3	-6.8	?	11.7	-2.8	?
CCCCC(=O)NC(NC(=O)CCCC)c1ccc(OCCC)c(OC)c1	0.3	-5.6	10.0	-2.3	-1.0	3.0
COc1ccccc1N1CCN(C(=O)c2oc3cc(C)c(C)cc3c2C)CC1	0.7	-5.0	-0.4	7.0	?	-0.4
Cc1cc2cc(C)c3nnc(SCc4ccccn4)n3c2cc1C	0.7	-13.4	1.4	-14.5	-26.4	2.5
COC(=O)c1nc(N)sc1-c1ccc(Cl)c(Cl)c1	1.8	-16.6	.	8.3	-24.1	2.2
Nc1ccc(Oc2ccc(N)c([N+](=O)[O-])c2)cc1[N+](=O)[O-]	1.6	-21.2	-5.4	11.7	.	0.0
CC(C)C[C@H](NC(=O)NC(C)C)C(=O)O	0.8	-2.4	10.5	14.8	-8.9	5.8
CCOc1ccc(NC(=O)C2CC(=O)N(c3cc(C)cc(C)c3)C2)cc1 (configuration not stated)	1.1	3.1	-1.2	-10.6	-12.5	1.3
Cc1ccc(C)c(N2CCN(C(=O)CCCCCn3c(=S)[nH]c4ccc(N5CCOCC5)cc4c3=O)CC2)c1	-0.9	27.3	0.0	4.1	1.2	0.0
CCOC(=O)c1cc2c(ccn2C)n1CC(=O)N1CCN(c2ccc(F)cc2)CC1	-0.1	-15.5	-17.5	2.5	4.7	-14.4
Cn1cncc1C#Cc1ccc2cc(C3(O)CCCCC3)oc(=O)c2c1	-0.4	-2.9	-3.2	-3.6	1.0	5.4
CN(CC(=O)Nc1ccc(F)cc1)C(=O)CSc1nccn1C	0.0	-13.4	0.1	-10.3	-11.0	2.9
COc1cccc(OC)c1C(=O)Nc1ccc2c(c1)n(C)c(=O)n2C	0.4	-2.0	9.7	-4.4	10.4	-6.0
Cc1ccc(C(=O)N2CCCC(c3ccc(Cl)cc3)=N2)cc1	1.8	3.8	3.1	44.5	2.3	-0.7
CC(C)(CN1CCN(Cc2ccccc2)CC1)NS(=O)(=O)c1ccccc1	1.1	-22.1	-1.1	3.0	-0.4	-1.9
O=C(NCCN1CCCC1)c1ccc2c(=O)n(CCc3ccccc3)c(=O)[nH]c2c1	0.1	-20.6	0.5	7.5	-4.1	-1.0
CCOC(=O)N(C)c1c(CC)nc2c(OCc3ccc(F)c(F)c3)cccn12	-1.1	-5.7	-9.9	.	.	2.5
CC(=O)Nc1ccc(S(=O)(=O)Nc2nccc(/C=C/c3ccc(Cl)cc3)n2)cc1	-0.6	-4.8	?	3.4	5.0	-6.0
CCOc1cc2c(C#N)c(N3CCCCC3)nc(N)c2c(N)n1	0.9	-2.3	-2.6	-15.7	10.4	-0.6
CCOC(=O)Nc1cc(Br)c2c(c1)OCCO2	-0.5	-7.8	9.9	5.8	-12.9	-0.5
Brc1ccccc1-c1nnc2sc(Cc3ccccc3)nn12	5.8	-6.9	4.3	-15.5	-20.7	-1.5
COc1cc(S(=O)(=O)NCCCN2CCOCC2)ccc1Cl	-0.1	-17.2	9.6	12.7	0.8	-2.8
COc1ccccc1OCCn1c(C)c(C=O)c2ccccc21	-0.8	0.2	.	-21.4	4.3	-5.2
CN(C)c1ccc(/C=N/NC(=O)CSc2ccccn2)cc1	1.2	-6.7	-13.8	10.5	.	-4.1
Cc1oc(-c2cccc(Cl)c2)nc1CS(=O)(=O)CC(=O)NC1CC1	-1.4	-3.3	0.0	5.1	-8.3	21.7
COc1ccc(NC(=O)N2CCCC2C(=O)Nc2ccccc2F)cc1 (configuration not stated)	-0.4	0.1	4.9	-7.4	-6.6	-0.8
CC1=C(C(=O)N2CCOCC2)CC(CC(=O)NCc2cccs2)C(=O)N1CCC1=CCCCC1 (configuration not stated)	-0.3	-0.5	-2.5	-12.4	.	6.5
Cc1ccc2c(Cl)cc(Cl)c(OCC(=O)Nc3cc(S(=O)(=O)N(C)C)ccc3C)c2n1	1.5	-0.7	0.0	-3.6	14.1	-0.2
N#Cc1ccccc1S(=O)(=O)N1CCN(C(=O)C2CCCC2)CC1	-0.6	3.4	0.0	14.5	-8.7	-6.6
Cc1c(C2=CCN(S(=O)(=O)c3cccc(Cl)c3)CC2)c2ccccc2n1CC(=O)N1CCCC1	2.8	.	.	-13.7	10.1	.
CCOC(=O)N1CCN(C(=O)c2ccc(NS(=O)(=O)c3ccc(C)cc3)cc2)CC1	0.0	?	0.9	-14.8	-6.7	-0.4
CCOCc1c(C(=O)NCC(c2ccco2)N2CCCC2)oc2ccccc12 (configuration not stated)	0.6	-8.0	-19.4	-5.1	.	-2.9
O=C(Nc1cccc2cccnc12)c1ccc(Br)cc1Br	1.6	-3.7	0.4	16.1	9.6	12.8
CN(C)c1ccc(C2CC(=O)OC3=C2C(=O)CC(C)(C)C3)cc1 (configuration not stated)	-0.3	-2.1	-1.8	15.1	4.8	13.3
CCN(CC)CCN(C(=O)c1ccc(C(=O)c2ccccc2)cc1)c1nc2c(OC)cccc2s1	-0.5	-21.1	-0.1	14.1	-1.4	-3.7
Cc1ccc(S(=O)(=O)N2CCCN(C)c3nc4ccccc4nc32)cc1	2.6	-14.5	-3.3	67.2	-9.3	14.8
Cc1ccc(-n2nc(C)c(NC(=O)CCl)c2C)cc1	-0.4	-6.1	14.2	-15.1	7.0	-0.4
CS(=O)(=O)Nc1ccc(S(=O)(=O)N2CCCCCC2)cc1	0.1	-1.4	4.1	-12.3	-7.4	-0.6
Cc1oc(=O)c(NC(=O)c2ccccc2)cc1C(N)=O	0.4	-2.3	.	-10.9	8.8	2.3
CC1(C)OC2CCN3C(C(O)COS3(=O)=O)C2O1 (configuration not stated)	0.3	-4.5	-4.2	-12.3	-11.8	18.8
O=C1C=C(c2c(O)ccc3ccccc23)c2ccccc2C1=O	1.5	5.6	-2.9	-17.1	.	-13.8
Fc1cc(F)c(C2SCCN2C(=S)Nc2cccc(C(F)(F)F)c2)c(F)c1 (configuration not stated)	11.2	-7.6	2.6	16.2	19.8	5.6
CCCn1nnc(NC(=O)c2ccco2)n1	0.6	0.4	-5.1	1.9	0.8	-1.7
COc1ccc(N2CCN(C(=O)NCc3ccc(OC)c(Cl)c3)CC2)cc1	0.2	-8.5	6.1	9.7	-9.0	-4.5
Cc1ccc(-n2c(C(C)C)nc3oc4ccccc4c(=O)c3c2=O)cc1	4.1	-8.0	3.0	-18.8	-3.6	-0.3
CCC(C)[C@H](NC(=O)[C@@H]1Cc2c([nH]c3ccccc23)C2c3ccccc3C(=O)N21)C(=O)N1CCC[C@@H]1C(=O)O (some centres not stated)	.	-4.9	-1.4	.	-9.9	-10.1
O=C1OC(=O)c2c(Br)c(Br)c(Br)c(Br)c21	-0.6	-4.8	-3.6	3.6	0.3	0.2
Cc1ccc2nc(NC(=O)c3ccc(NS(=O)(=O)c4cccs4)cc3)sc2c1	0.1	-7.9	-12.4	12.8	-9.7	-2.3
Cn1c(N)c(C(=O)COC(=O)CCCN2C(=O)c3ccccc3C2=O)c(=O)n(C)c1=O	0.0	5.5	-12.7	-26.0	7.8	-5.9
Cc1ccc(N(Cc2cc3ccc(C)cc3[nH]c2=O)S(C)(=O)=O)c(C)c1	.	-12.6	0.0	.	-7.2	0.0

A stretch taken from the entries so far:
SMILES	TRPML1 ag	D2 PAM	CtBP-E1A blk	TRPML1 inh	TRPV1 PAM	Six1-Eya2 inh
Cc1ccc(S(=O)(=O)N2CCCN(C)c3nc4ccccc4nc32)cc1	2.6	-14.5	-3.3	67.2	-9.3	14.8
Cc1ccc(-n2nc(C)c(NC(=O)CCl)c2C)cc1	-0.4	-6.1	14.2	-15.1	7.0	-0.4
CS(=O)(=O)Nc1ccc(S(=O)(=O)N2CCCCCC2)cc1	0.1	-1.4	4.1	-12.3	-7.4	-0.6
Cc1oc(=O)c(NC(=O)c2ccccc2)cc1C(N)=O	0.4	-2.3	.	-10.9	8.8	2.3
CC1(C)OC2CCN3C(C(O)COS3(=O)=O)C2O1 (configuration not stated)	0.3	-4.5	-4.2	-12.3	-11.8	18.8
O=C1C=C(c2c(O)ccc3ccccc23)c2ccccc2C1=O	1.5	5.6	-2.9	-17.1	.	-13.8
Fc1cc(F)c(C2SCCN2C(=S)Nc2cccc(C(F)(F)F)c2)c(F)c1 (configuration not stated)	11.2	-7.6	2.6	16.2	19.8	5.6
CCCn1nnc(NC(=O)c2ccco2)n1	0.6	0.4	-5.1	1.9	0.8	-1.7
COc1ccc(N2CCN(C(=O)NCc3ccc(OC)c(Cl)c3)CC2)cc1	0.2	-8.5	6.1	9.7	-9.0	-4.5
Cc1ccc(-n2c(C(C)C)nc3oc4ccccc4c(=O)c3c2=O)cc1	4.1	-8.0	3.0	-18.8	-3.6	-0.3
CCC(C)[C@H](NC(=O)[C@@H]1Cc2c([nH]c3ccccc23)C2c3ccccc3C(=O)N21)C(=O)N1CCC[C@@H]1C(=O)O (some centres not stated)	.	-4.9	-1.4	.	-9.9	-10.1

Going on with the list:
SMILES	TRPML1 ag	D2 PAM	CtBP-E1A blk	TRPML1 inh	TRPV1 PAM	Six1-Eya2 inh
CC1(C)Oc2ccccc2OC1(O)c1ccc2ccccc2n1 (configuration not stated)	0.2	-1.3	3.9	-20.2	-8.9	1.8
COc1cc2cc(C(=O)N3CCN(Cc4ccc5c(c4)OCO5)CC3)[nH]c2cc1OC	0.1	-13.6	.	-13.9	-0.8	1.2
COc1ccc(CNC(=O)CCc2ccc(S(=O)(=O)N3CCCCCC3)cc2)cc1OC	0.9	-9.8	1.0	16.3	-14.6	1.6
CC(C)[C@H](NC(=O)Nc1ccccc1F)C(=O)O	-0.7	-6.8	11.4	-9.8	-1.3	1.2
